Compound activity: PubChem BioAssay, several laboratories
Autofluor counter: compound fluorescence in toxin protease inhibitor counterscreen. hit rate 3.1% among 360,000. compound autofluorescence counterscreen, microsphere flow cytometry; active compounds read high. fluorescence intensity (no concentration beside the values). AID 624483;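 active means at least 3 SD above the mean of all compounds, about 16000 in these data; inconclusive means too few beads counted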;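 further: 100 nL of 1 mM stock went into each well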
Mtb hypoxia rep: inhibitors of hypoxia-regulated fluorescent reporter in Mycobacterium tuberculosis; M. tuberculosis hypoxia-regulated fluorescent reporter, fluorescence; fluorescence inhibition, % (concentration not given with the values); hit rate 0.1% among 300,000;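 active means 35 to 45% if threefold the growth effect, above 45% if 1.5-fold the growth effect; inactive means the rest, general growth blockers included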;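 further: wells of about 50 µL received 100 nL stock; 0% = vehicle wells and 100% = reference inhibitor wells; whole bacteria with a GFP reporter of the hypoxia response; strong numbers were not always called active; many hits fall short of the cut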
PrP UTR inh: suppresses PrP 5' UTR mRNA reporter expression | cell-based PrP 5' UTR mRNA reporter, plate reader | inhibition, % (no concentration beside the values) | hit rate 0.35% among 340,000;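 active means every replicate at 50% or more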;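 further: 0 = median of the neutral control wells; tested in H4 reporter cells; numbers are from one replicate; inactives centre near -14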
RN4220 kill: kills Staphylococcus aureus RN4220. S. aureus RN4220 growth, OD600, 16 h. inhibition, % (no concentration beside the values). hit rate 0.33% among 330,000;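 active means z-score of -3 or lower and OD600 up to 0.18 on both plates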;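 further: plate controls were untreated cells for no effect and reference antibiotic for full effect; stock transfer was 100 nL into about 80 µL; one replicate is shown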
Sa ugtP lethal: growth inhibition of S. aureus ugtP deletion strain | S. aureus RN4220 ugtP deletion, OD600 growth, 16 h; some inactives read as strong as hits | growth inhibition, % (no concentration beside the values) | hit rate 0.54% among 330,000 | AID 1259309;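 active means z-score under -3 and OD600 up to 0.15 on both plates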;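 further: plate controls were untreated wells for no effect and antibiotic for full effect; wells of about 80 µL received 100 nL stock; the first replicate is given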
BJeLR lethal: BJeLR cell viability loss. BJeLR (HRASV12) viability, CellTiter-Glo ATP luminescence, 48 h; reference of the scale not given here. inhibition, % (concentration not given with the values). hit rate 0.17% among 300,000. AID 1554;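 active means replicate mean above 50%; inconclusive means above 50% but judged a plate artefact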;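 further: 50 nL library stock added to about 25 µL; numbers are from one replicate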
Mtb hypoxia rep growth: also measured in Mtb hypoxia rep; calls as there; growth inhibition, %; measured here: M. tuberculosis growth (absorbance);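 0% = vehicle and 100% = reference antibiotic; read after six days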
* marks the source's active call; other numbers are inactive results; ? = inconclusive; nt = no result given. Not a hit list. Share with any hit: about 4%.

SMILES	Autofluor counter	Mtb hypoxia rep	Mtb hypoxia rep growth	PrP UTR inh	RN4220 kill	Sa ugtP lethal	BJeLR lethal
CCN1CCN(c2nc(Nc3cccc(C)c3)nc(N)c2[N+](=O)[O-])CC1	2172	-4	-10	-11	2.6	1	-4
Cc1ccc(-c2nnn(CC(=O)N(CC(=O)NC3CCCC3)c3cnc4ccccc4c3)n2)o1	20315*	5	6	9	3.7	0	7
N#CCCN(C(=O)COC(=O)CCC(=O)c1ccc(F)cc1)c1ccccc1	9209	7	4	-31	-1.5	1	nt
CC(OC(=O)c1c(F)cccc1F)C(=O)NCCC1=CCCCC1 (centres undefined)	3126	2	-5	1	2.2	7	nt
Cc1cccc(NCCNc2cccc(C)c2)c1	4174	7	4	-18	4.4	-12	2
Cc1nc(-c2ccccc2)cc(=O)[nH]1	9182	12	12	-17	6.2	3	-7
COCCCN(C(=S)Nc1cc(Cl)cc(Cl)c1)C(C)c1ccccn1 (centres undefined)	6197	3	4	-8	9.5	-12	14
CC(=O)N1c2ccccc2Oc2cc3ccccc3cc21	6722	-3	-2	-51	5.9	-12	6
Cc1ccc(-c2cc(NC(=O)CCl)n(-c3ccccc3)n2)cc1	2599	nt	nt	2	-0.9	15	3
CNCc1c(OCc2ccccc2)ccc2ccccc12	3675	3	14	2	1.2	-5	23
CN(C(=O)c1cc2c(=O)n3ccccc3nc2s1)C1CCCCC1	5654	5	10	-75	5.3	6	12
O=C(Oc1ccc(-c2nnco2)cc1)N(c1ccccc1)c1ccccc1	2479	nt	nt	-16	7.5	19	16
CCCCCC=CC1=CC(=O)CC(c2ccc(OC)c(OC)c2)C1 (centres undefined)	nt	-2	5	nt	4.7	66	nt
Cc1cc(NC(=O)CSc2nc3ccsc3c(=O)n2CCCC(=O)NCCc2ccccc2)no1	4067	9	3	-9	2.3	0	1
CC1CN(CC(=O)N2CCc3[nH]c4ccccc4c3C2)CC(C)O1 (centres undefined)	3904	nt	nt	-11	-0.3	6	-2
Cc1ccc(C(=O)NNC(=O)c2ccc(S(=O)(=O)N(C)c3ccccc3)cc2)cc1	6542	8	-5	-16	7.6	-6	nt
COCCCn1c(C)cc(C(=O)COC(=O)C23CC4CC(CC(O)(C4)C2)C3)c1C	5808	9	-3	-48	3.5	6	nt
CC(C)c1cc(NC(=O)C(C)(C)C)cc(C(C)C)c1O	3059	nt	nt	-25	1.4	9	1
CN1C(=O)CCC1(O)c1ccccc1 (centres undefined)	?	2	2	-13	4.7	5	6
Cc1cccc(C(=O)OCC(=O)NCCCc2ccccc2)c1O	3066	3	-8	-1	-3.6	3	-1
O=S(=O)(N=Cc1c(O)ccc2ccccc12)c1ccccc1	nt	9	11	nt	4.9	17	nt
COc1ccc(OC)c(-n2nnnc2SCC(=O)Nc2ccc3c(c2)OCCO3)c1	5394	9	-1	-33	2.4	-5	-8
CCOCCCN1C(=O)CN(C2CCC(C)CC2)C(=O)C1c1ccc(C)cc1 (centres undefined)	4028	6	2	0	-3.6	-7	7
O=C1C2C3C=CC(C3)C2C(=O)N1CCC(=O)N1CCc2ccccc21 (centres undefined)	11309	6	7	-24	1.1	0	1
CNC(=S)NNC(=O)c1cccc(C(F)(F)F)c1	11577	9	-4	nt	5.2	4	2
Other structures follow:
SMILES	Autofluor counter	Mtb hypoxia rep	Mtb hypoxia rep growth	PrP UTR inh	RN4220 kill	Sa ugtP lethal	BJeLR lethal
CCOC(=O)c1sc2nc(C)nc(SCC(=O)N(CC)C3CCS(=O)(=O)C3)c2c1C (centres undefined)	2494	5	3	7	3.6	-7	5
O=C(NC1CC=CCC(CC(=O)N(CCO)Cc2ccccc2)C(=O)NCCOC1=O)OCC1c2ccccc2-c2ccccc21 (centres undefined)	nt	-9	7	nt	-5.2	-5	nt
CC(=O)c1oc2ccccc2c1NC(=O)CCCN1C(=O)c2ccccc2C1=O	5363	9	12	-6	-5.1	3	0
CCOC(=O)Cc1csc(NS(=O)(=O)Cc2ccccc2)n1	4208	12	4	-32	8.3	-5	-12
CC(=O)c1cccc(S(=O)(=O)Nc2cccnc2)c1	4351	13	0	-1	2.2	3	-9
Cc1ccc(C2CC(=O)C=C(NCC(C)C)C2)cc1 (centres undefined)	2085	5	7	-14	7.3	4	-6
CCC(Oc1ccc(C)cc1)C(=O)Nc1ccc2c(c1)n(C)c(=O)n2C (centres undefined)	3913	17	8	-20	2.2	9	2
CC1Cc2ccccc2N1C(=O)CSc1nc2c(c(=O)n(C)c(=O)n2C)n1Cc1ccc(F)cc1 (centres undefined)	2429	8	12	-9	-12	-4	1
CC(=O)CC(=O)Nc1ccc(Nc2ccccc2)cc1	10931	-4	3	-63	7.2	-4	8
COc1cc(C=NNC(=O)C2CC3C=CC2C3)ccc1O (centres undefined)	nt	-9	-6	nt	-0.8	-3	nt
COc1ccc(CCNC(=O)COC(=O)/C=C/c2ccc(OCC#N)c(OC)c2)cc1OC	2524	-4	4	-8	-1.4	5	8
Nc1nonc1-n1nnc(C(=O)NN=Cc2cccc(Cl)c2Cl)c1CN1CCCC1	nt	1	-6	nt	2.2	-4	nt
COc1ccc(C=NNC(=O)c2ccc(Cl)c(S(N)(=O)=O)c2)cc1OCC(N)=O	nt	13	9	nt	-1.4	1	nt
CSc1ncccc1C(=O)OCC(=O)c1ccccc1Br	4478	8	-4	-21	1.8	19	-28
COc1ccc(/C=N/N2C(=O)CSC2=S)cc1	6086	nt	nt	-24	nt	nt	17
COc1cc(OC)c2c(=O)cc(-c3cccnc3)oc2c1	3159	nt	nt	-15	nt	nt	-2
Oc1ccc(/C=N/N2CCN(C3c4ccccc4-c4ccccc43)CC2)cc1O	4280	nt	nt	-8	nt	nt	15
CCOC(=O)C1=CN(Cc2cccc(F)c2)S(=O)(=O)NC1c1ccccc1 (centres undefined)	3747	-9	2	-8	-3.1	-3	nt
O=C(NCc1cccc(F)c1)C1CCN(S(=O)(=O)Cc2ccccc2)CC1	4579	-8	-5	-2	-3.3	9	7
CCN(C(=O)COC(=O)c1cc([N+](=O)[O-])ccc1N1CCOCC1)c1ccccc1	8803	-9	-4	3	5.8	3	nt
CC(C)NC(=O)C1CCN(Cc2cccc(Oc3ccccc3)c2)CC1	4386	3	3	-8	0.5	6	-6
COc1cccc(-c2ccc(SCC(=O)N3CCOCC3)nn2)c1	3204	6	-4	-19	11	9	10
O=C(C1CCCN1S(=O)(=O)c1cccc2nsnc12)N1CCCCCC1 (centres undefined)	4503	11	10	-16	3.1	-6	-2
Cc1cc(C)nc(/N=C(\N)Nc2ccc(OCCC(C)C)cc2)n1	3126	3	11	-3	6.1	5	-3
CC12CCC(C(=O)N3CCCCC3)(CC1=O)C2(C)C (centres undefined)	8156	8	10	-12	4.6	-9	-1
Additional compounds
SMILES	Autofluor counter	Mtb hypoxia rep	Mtb hypoxia rep growth	PrP UTR inh	RN4220 kill	Sa ugtP lethal	BJeLR lethal
COC(=O)c1ccccc1SCc1csc(C)n1	4394	12	3	-20	0.2	12	8
CCOC(=O)C1=C(C)C(c2ccc(OC)cc2OC)NC(=O)N1 (centres undefined)	2955	22	-16	-5	-16	-7	-1
O=C(CSc1ccc(C(F)(F)F)cc1[N+](=O)[O-])Nc1ccc2ccccc2c1	2440	11	0	-20	2.4	0	3
COc1cc(/C=N/NC(N)=S)ccc1OC(=O)c1ccc(C)cc1	9422	nt	nt	-8	nt	nt	-14
COc1ccccc1[C@H]1C(c2ccccc2)=NN(c2ccccc2)[C@@H]1CO	3547	2	0	-6	-6.0	17	nt
COc1ccc(CNC(=O)CSc2nnc(C)n2-c2ccc(F)cc2)cc1	3776	13	1	-19	5.5	7	1
O=C(Nc1sc2c(c1C(=O)O)CCCCC2)c1ccco1	10027	10	21	-43	25	-11	2
COc1cc(/C=C(\C#N)C(=O)NCc2ccccc2)ccc1OCc1ccc(C(=O)O)cc1	6472	6	14	-18	12	7	-11
O=C(NCc1ccc(F)cc1)Nc1ccc(Cl)cc1	4600	16	9	-22	-11	0	-18
CC(C)(C)c1cc(C(C)(C)C)n(-c2ccccc2)n1	2168	10	1	-19	7.3	7	-8
CN(CC(=O)N1CCN(Cc2ccccc2)CC1)C(=O)Cc1ccc(Cl)c(Cl)c1	4150	-6	-4	-10	3.2	0	nt
CC(C)(C)OC(=O)N1CCC(C(=O)N2CCOCC2)CC1	2879	4	3	0	1.8	-5	-2
CCOC(=O)c1cn(CC(=O)Nc2ccc(CC)cc2)nn1	4502	-7	-4	-11	-2.6	-6	8
CCc1cccc(NC(=O)CCc2c(C)nn(-c3ccc(N4CCOCC4)nn3)c2C)c1	5704	2	3	-8	-3.9	-6	7
COc1ccccc1NC(=O)COC(=O)Cc1cccs1	2086	9	1	-23	4.5	1	4
CN1C(=O)C2(c3ccccc31)c1c(oc3ccccc3c1=O)C(=O)N2CCCO (centres undefined)	6088	14	3	-32	3.1	10	-3
Cc1nn(C)cc1/C=N/NC(=O)C1(O)c2ccccc2-c2ccccc21	2300	nt	nt	-18	nt	nt	12
COc1cccc(CNC(=O)C(CCSC)NS(=O)(=O)c2ccc3c(c2)oc(=O)n3C)c1 (centres undefined)	4362	nt	nt	-14	-2.9	-1	8
CCCCn1c(N)c(N(CCC(C)C)C(=O)c2ccc([N+](=O)[O-])s2)c(=O)[nH]c1=O	4602	2	-8	-24	10	11	4
O=C(NC12CC3CC(CC(C3)C1)C2)N1CCN(c2nc(-c3ccccc3)cs2)CC1	3356	-4	20	3	-2.2	-13	-4
CCCCn1c2c(cc(C(=O)OC)c1=O)C(=O)CCC2	3959	-5	2	1	4.0	-1	nt
Cn1cc(C(=O)C(F)(F)F)c2ccccc21	2935	nt	nt	-3	-2.5	-8	4
CC(C)OC(=O)Nc1ccc2c(c1)N(C(=O)N1CCN(C)CC1)c1ccccc1CC2	3409	9	12	-54	1.5	6	20
Nn1c(Cc2ccccc2)nc2sc3c(c2c1=O)CCC3	4134	11	9	-9	0.0	8	-3
CCO[C@H]1OC(C(=O)N2CCN(Cc3ccccc3)CC2)=C[C@@H](c2ccc(C(F)(F)F)cc2)[C@@H]1CCCO	2977	14	8	8	-12	-17	-2

Rewritten in CSV form: 5 of the compounds above
structure,Autofluor counter,Mtb hypoxia rep,Mtb hypoxia rep growth,PrP UTR inh,RN4220 kill,Sa ugtP lethal,BJeLR lethal
CC1Cc2ccccc2N1C(=O)CSc1nc2c(c(=O)n(C)c(=O)n2C)n1Cc1ccc(F)cc1 (centres undefined),2429,8,12,-9,-12,-4,1
CC(=O)CC(=O)Nc1ccc(Nc2ccccc2)cc1,10931,-4,3,-63,7.2,-4,8
COc1cc(C=NNC(=O)C2CC3C=CC2C3)ccc1O (centres undefined),nt,-9,-6,nt,-0.8,-3,nt
COc1ccc(CCNC(=O)COC(=O)/C=C/c2ccc(OCC#N)c(OC)c2)cc1OC,2524,-4,4,-8,-1.4,5,8
Nc1nonc1-n1nnc(C(=O)NN=Cc2cccc(Cl)c2Cl)c1CN1CCCC1,nt,1,-6,nt,2.2,-4,nt

Next part.
SMILES	Autofluor counter	Mtb hypoxia rep	Mtb hypoxia rep growth	PrP UTR inh	RN4220 kill	Sa ugtP lethal	BJeLR lethal
Cc1c(SCCO)c(=O)[nH]c2cc3c(cc12)OCO3	11161	6	2	-9	2.9	-1	0
CCN1CCCC1CNC(=O)c1ccc2c(c1)NC(=O)/C(=C\c1ccc(C)cc1)S2 (centres undefined)	9623	11	6	-4	-3.1	-11	-1
CCOC(=O)CSc1nc2c(c(=O)n(Cc3ccccc3Cl)c(=O)n2C)n1C	4687	nt	nt	-4	2.3	17	5
O=C(N/N=C/c1c[nH]c2ccc(Br)cc12)c1ccc2c(c1)OCO2	4302	nt	nt	-12	nt	nt	-9
Cc1cccc(N(C(=O)c2ccc(CN3CCOCC3)o2)C(C(=O)NC(C)(C)C)c2ccc(F)cc2)c1 (centres undefined)	3841	16	11	-19	-13	-8	-4
O=C(NCCc1nc(-c2ccccc2)no1)c1ccco1	4006	21	16	11	2.8	0	-2
Nc1cc(OCC(F)(F)F)cc([N+](=O)[O-])c1	2471	-1	-6	-13	0.2	-3	13
COC(=O)c1c(C(C)=O)c(C)n(C)c1C	5835	16	9	-12	3.0	13	-1
COc1ccc(NC(=O)Cn2c(=O)n(CC3CCCO3)c(=O)c3cc(OC)c(OC)cc32)cc1OC (centres undefined)	4121	0	3	58*	4.8	11	11
Cc1ccc2nc(C3CCN(C(=O)NCc4ccccc4)CC3)[nH]c2c1	17071*	5	2	-2	1.7	0	-3
